# From PubChem BioAssay
# RE007 growth inh – qHTS Assay for Inhibitors of the HIV-1 protein Vpr; AID 651644, 2012; Potency, µM (doses to about 92.2 µM), without a hit: at the highest dose activity change, negative = less growth; 360,000 compounds, 0.21% hits; S. pombe RE007 Vpr strain, BacTiter-Glo ATP luminescence, 24 h; control for the full effect not named in the record; active = well fitted falling curve with a large enough effect; inconclusive = small, poorly fitted or top-dose-only effect; inactive = no such curve, though single readings can be large or run the other way;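 note: % is set by controls: 0 for no effect and ±100 for the full control effect; nearly all actives have a fitted effect of over 50% in size; the assay follows cell death caused by Vpr and the record does not say whether a fall means rescue or toxicity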
#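 Fission yeast RE007 carrying one integrated HIV-1 vpr copy, seeded at OD 0.01 in PMG+AL medium with 23 nL pinned compound. Grown 24 h at 30 degrees; viability read by BacTiter-Glo luminescence after 5 min.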
# NS1 function inh – qHTS Assay for Inhibitors of Influenza NS1 Protein Function. S. cerevisiae slowed by influenza A NS1, growth recovery by OD600. Potency, µM (top dose mostly 46.1 µM), inactives show top-dose activity, positive = more growth. 270,000 compounds, 0.4% hits. AID 2326, 2010; active means well fitted rising curve with a large enough effect; inconclusive means small, poorly fitted or top-dose-only effect; inactive means no such curve, though single readings can be large or run the other way; note: nearly all actives have a fitted effect of over 50% in size
#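 Compounds were scored for reversing the slow growth caused by influenza A NS1 in S. cerevisiae, measured by optical density at 600 nm. Assay medium contained 2% galactose at pH 6.0; NS1-free yeast of the same strain were the positive control.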
# Cruzain noTriton – qHTS Assay for Promiscuous and Specific Inhibitors of Cruzain (without detergent); 200,000 compounds, 2.3% hits; purified cruzain, Z-FR-AMC fluorescence, no detergent; Potency, µM, for inactives: max response, negative = inhibition, hits mostly inhibitors;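 note: plate controls were enzyme without inhibitor for no effect and buffer without enzyme for full effect; nearly all actives have a fitted effect of over 40% in size; top concentration of the series not given in the record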
# Target sequence (P25779 123-467 limits assumed): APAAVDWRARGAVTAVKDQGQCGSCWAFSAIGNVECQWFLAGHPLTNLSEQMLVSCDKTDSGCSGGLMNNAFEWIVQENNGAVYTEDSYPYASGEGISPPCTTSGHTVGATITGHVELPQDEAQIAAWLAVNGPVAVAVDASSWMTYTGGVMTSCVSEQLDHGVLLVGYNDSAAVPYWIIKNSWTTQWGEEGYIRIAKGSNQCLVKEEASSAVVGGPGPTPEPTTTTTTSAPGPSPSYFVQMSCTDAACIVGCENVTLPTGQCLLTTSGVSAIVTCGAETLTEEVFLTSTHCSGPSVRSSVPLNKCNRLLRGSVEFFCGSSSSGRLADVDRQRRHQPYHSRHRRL
#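 Detergent-free condition (0.00005% Triton X-100) in acetate buffer pH 5.5 with DTT. 1.5 nM enzyme and compound were pre-mixed 15 min, then 2 uM Z-FR-AMC substrate added; reaction progress from fluorescence change between first and third reads (60 s).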
# Cruzain inh Det – qHTS Assay for Promiscuous and Specific Inhibitors of Cruzain (with detergent); purified cruzain, Z-FR-AMC fluorescence, 0.01% Triton; Potency, µM, without a hit: max response, negative = inhibition, hits mostly inhibitors; Cruzipain (Trypanosoma cruzi), P25779; 200,000 compounds, 0.43% hits;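 note: plate controls were neutral wells for no effect and buffer without enzyme for full effect; nearly all actives have a fitted effect of over 40% in size; top concentration of the series not given in the record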
#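 15 min RT preincubation of 1.5 nM cruzain with compound, then 2 uM Z-FR-AMC added; kinetic AMC fluorescence, 60 s delta. Triton X-100 0.01%, pH 5.5.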
# 2A StopGo – High Throughput Screening for Foot and Mouth Disease Virus Antivirals. human cells with a luciferase reporter of 2A StopGo recoding; control for the full effect not named in the record. Potency, µM (highest dose often 57.9 µM), for the others: at the top dose signal change, negative = less light. 410,000 compounds, 1.2% hits. AID 1159524, 2015; active = well fitted falling curve with a large enough effect; inconclusive = small, poorly fitted or top-dose-only effect; inactive = no such curve, though single readings can be large or run the other way; tested in HEK293T cells; note: % is set by controls: 0 for no effect and ±100 for the full control effect; nearly all actives have a fitted effect of over 45% in size; luciferase light after 4 h
# Marburg entry inh – qHTS for inhibitors of binding or entry into cells for Marburg Virus; Marburg virus pseudotyped entry inhibition, cell reporter; control for the full effect not named in the record; about a third of the inactives were read at about 46 µM; Potency, µM (highest dose often 37.8 µM), for inactives: at the top dose activity change, negative = inhibition, hits mostly inhibitors; 300,000 compounds, 1.8% hits; AID 540276, 2011; active = well fitted inhibition curve with a large enough effect; inconclusive = small, poorly fitted or top-dose-only effect, or effect the other way; inactive = flat fitted curve, though single readings scatter; tested in HEK293 cells; about a fifth of its hits are not listed in these tables; note: % is set by controls: 0 for no effect and ±100 for the full control effect; luciferase read-out
# Lassa entry inh – qHTS for Inhibitors of binding or entry into cells for Lassa Virus; Potency, µM (titrated, usually from 37.9 µM), without a hit: top-dose activity change, negative = inhibition, usual class: inhibitors; Lassa virus pseudotype entry inhibition, cell reporter; control for the full effect not named in the record; 300,000 compounds, 1.2% hits; AID 540256, 2011; active means well fitted inhibition curve with a large enough effect; inconclusive means small, poorly fitted or top-dose-only effect, or effect the other way; inactive means flat fitted curve, though single readings scatter; tested in HEK293 cells; note: % is set by controls: 0 for no effect and ±100 for the full control effect; nearly all actives have a fitted effect of over 50% in size; luciferase read-out
# SARS PLP yeast – qHTS of Yeast-based Assay for SARS-CoV PLP; S. cerevisiae expressing SARS-CoV PLpro, growth rescue; control for the full effect not named in the record; Potency, µM (series often up to 32.9 µM), for inactives: top-dose activity, positive = growth rescue; 330,000 compounds, 0.19% hits; active means well fitted rising curve with a large enough effect; inconclusive means small, poorly fitted or top-dose-only effect; inactive means no such curve, though single readings can be large or run the other way; note: 0% is about no effect; nearly all actives have a fitted effect of over 55% in size; growth read by luminescence after 48 h
# * marks the source's active call; other numbers are inactive results; ? = inconclusive; . = not tested or not shown; [ ] = remark or other dose. Unless noted, calls come from the whole dose curve; as a rule, active = well fitted curve in the direction sought with a large enough effect; inconclusive = small, poorly fitted or top-dose-only effect, or another doubt; inactive = no such curve, though single readings can be large; an effect the other way counts as inactive or inconclusive. Potency is the fitted concentration of half-maximal effect.
No.	SMILES	RE007 growth inh	NS1 function inh	Cruzain noTriton	Cruzain inh Det	2A StopGo	Marburg entry inh	Lassa entry inh	SARS PLP yeast
1	CC(C)(C)NC(=O)NC(=O)COC(=O)c1cc(=O)[nH]c2ccccc12	21%	4%	2%	-3.4%	-28%	5%	-1%	3%
2	CCN(CC)C(=S)NC(=O)c1cc(OC)c(OC)c(OC)c1	10%	9%	.	.	-10%	0%	-10%[46.1 µM]	0%
3	Cc1cc(C(=O)Nc2nccs2)c2cc(F)ccc2n1	-13%	-2%	.	.	-13%	1%	1%	-1%
4	Cc1ccc(SCCCCN2CCOCC2)cc1	3%	-6%	.	.	21%	?	12%[46.1 µM]	-8%
5	C=CCC(C(=O)OC)(C(=O)OC)c1ccc(C(F)(F)F)cc1[N+](=O)[O-]	12%	5%	.	.	-30%	-19%[46.1 µM]	-2%	-1%
6	COc1ccc(CNC(=O)[C@@H](NC(=O)C2CCN(C(=O)[C@@H]3CCCN3C(=O)OC(C)(C)C)CC2)C(C)C)cc1	-3%	1%	.	.	-22%	.	.	-3%
7	CC1=NN(C(N)=S)C(=O)C1N=Nc1ccc([N+](=O)[O-])cc1 (stereo not given)	3%	-5%	.	.	-42%	19%[46.1 µM]	30%	1%
8	CN1CCN(S(=O)(=O)c2ccc3c4c(cccc24)C(=O)N3)CC1	-2%	8%	1%	-8.6%	6%	1%	.	4%
9	CC(=O)N1CCN(C(=O)COC(=O)COc2ccc(C#N)cc2)CC1	17%	.	.	.	0%	23%[46.1 µM]	2%	-7%
10	CCCOc1ccc(NC(=O)C2CC(=O)N/C(=N/N=C(C)/C=C/c3ccc(N(C)C)cc3)S2)cc1 (stereo not given)	-14%	?	25µM*	-16%	21%	-2%	-8%	-12%
11	c1ccc2c(c1)NC(CN1CCOCC1)CO2 (stereo not given)	6%	1%	0%	2.3%	-23%	6%	14%	2%
12	Cc1ccc(NC(=O)c2nc(S(C)(=O)=O)ncc2N(Cc2ccc(C(C)(C)C)cc2)Cc2ccco2)cc1C	.	.	-22%	0.1%	-11%	5%[46.1 µM]	-24%[46.1 µM]	.
13	Cc1ccc(-n2ncc(C(=O)NCCN3CCN(C)CC3)c2C2CCN(C(=O)OC(C)(C)C)CC2)c(C)c1	.	.	4%	1.0%	-19%	.	-28%[46.1 µM]	.
14	Clc1ccccc1/C=C/c1nc(-c2cccnc2)no1	-9%	-4%	.	.	44%[activator]	.	.	0%
15	CN(Cc1ccccc1)S(=O)(=O)c1cc2c3c(c1)CCN3C(=O)CC2	-3%	.	.	.	14%	9%	-24%	1%
16	CCOC(=O)/C=c1/s/c(=C\c2c(OC)ccc3ccccc23)c(=O)n1CC(=O)NCC1CCCO1 (stereo not given)	-2%	.	.	.	-11%	?	?	.
17	O=C(c1ccc(CS(=O)c2cccc(Cl)c2)o1)N1CCCCCC1 (stereo not given)	-10%	4%	.	.	-4%	?	2%[46.1 µM]	0%
18	C=CCn1c(COc2ccccc2)nnc1SC(C)C(=O)N/N=C/c1cc(Cl)ccc1O (stereo not given)	11%	-1%	14%	-3.0%	0%	?	?	-5%
19	C/C(=C\c1ccc(Cl)cc1)C(=O)c1c(C)cc(C)[nH]c1=O	-1%	?	.	.	-15%	.	.	1%
20	CCOc1ccc(/C=C/C(=O)NC2CCCCC2)cc1	5%	-13%	.	.	48%[activator]	5%	0%	-1%
21	Cn1cc(CNC(=O)c2cc(-c3ccc(Br)cc3)nc3ccccc23)cn1	6%	.	.	.	4%	-9%[46.1 µM]	1%[46.1 µM]	0%
22	CCOC(=O)c1c(C)[nH]c(C)c1S(=O)(=O)NCC(=O)Nc1ccc(CC)cc1	.	.	3%	-0.4%	7%	.	2%[46.1 µM]	.
23	CCCn1cnc2cc(NCc3ccccc3O)ccc21	6%	2%	.	.	0%	.	.	0%
24	COc1ccccc1NC(=O)NNC(=O)c1ccc2ccccc2c1O	0%	?	.	.	39%[activator]	-15%[46.1 µM]	2%[46.1 µM]	-4%
25	COc1cc(NS(=O)(=O)c2ccc(NC(=O)c3ccc(S(=O)(=O)N4CCCCC4)cc3)cc2)ncn1	0%	.	.	.	-4%	-9%[46.1 µM]	-3%[46.1 µM]	-7%
26	CC(C(=O)c1ccccc1)n1c(N2CCOCC2)nc2c1c(=O)n(C)c(=O)n2C (stereo not given)	-1%	0%	-2%	2.9%	-14%	13%	4%	8%
27	CC1CCC(C(C)C)C(OC(=O)Cn2c(-c3ccc(F)cc3)[n+](C)c3ccccc32)C1 (stereo not given)	2%	-7%	-1%	3.2%	?	?	?	-15%
28	CC1=C(C(N)=O)C(c2ccc3c(c2)OCO3)n2nc(-c3cccc(C)c3)nc2N1 (stereo not given)	13%	3%	?	-1.0%	-11%	?	-19%	8%
29	CCOC(=O)CSc1nnc([C@H](Cc2ccccc2)NC(=O)OC(C)(C)C)o1	12%	-10%	-10%	-3.8%	-17%	-22%	25%	-1%
30	CCCc1nnc(NC(=O)CCC(=O)N2CCC(C)CC2)s1	-3%	4%	.	.	18%	.	.	1%
31	Cc1csc(NC(=O)c2cc3c(s2)-c2ccccc2OC3)n1	5%	?	?	-3.3%	-7%	?	15%	16%
32	Cn1ccnc1SCC(=O)Nc1cccc(S(=O)(=O)N2CCCCC2)c1	-2%	.	.	.	22%	9%[46.1 µM]	2%	0%
33	Cc1ccc2c(CC(=O)N3CCOCC3)coc2c1	3%	0%	.	.	14%	.	.	-2%
34	COc1cc(OC)cc(C(C)=O)c1	-1%	-8%	-5%	11%	-3%	4%	-1%	-5%
35	Nc1cnccc1C(=O)O	-5%	.	.	.	11%	-11%[46.1 µM]	13%[46.1 µM]	1%
36	CCN(CC)Cc1c(C(=O)N/N=C/c2cccc3ccccc23)nnn1-c1nonc1N	-14%	-3%	.	.	9%	-5%[46.1 µM]	?	1%
37	CCCN(Cc1cc2cccc(C)c2[nH]c1=O)S(C)(=O)=O	-7%	7%	?	0.4%	-9%	-4%	.	18%
38	CCN(CC(=O)NC1CCS(=O)(=O)C1)S(=O)(=O)c1ccc(Br)cc1 (stereo not given)	1%	.	.	.	-5%	-9%	8%	1%
39	CCc1ccc(NC(=O)C(Cc2ccccc2)NS(=O)(=O)c2ccc3c(c2)c(=O)n(C)c(=O)n3C)cc1 (stereo not given)	.	.	-11%	-1.0%	3%	-21%[46.1 µM]	-7%[46.1 µM]	.
40	COc1ccc(OC)c(C(=O)c2c(C)oc3cc([N+](=O)[O-])c(O)c([N+](=O)[O-])c23)c1	36%	3%	.	.	-8%	7%[46.1 µM]	-2%	0%
41	O=C(Nc1nnc(C(F)(F)F)s1)c1ccc(N2C(=O)C3C4C=CC(C4)C3C2=O)cc1 (stereo not given)	-8%	5%	-4%	0.8%	.	3%	-13%	3%
42	COc1ccc(OC)c(S(=O)(=O)N2CCC(C(=O)Nc3cccc(C)c3)CC2)c1	-15%	1%	-3%	-3.3%	.	-27%	3%	23%[6.58 µM]
43	COC(=O)c1cc(NC(=O)CN(C)Cc2ccccc2)cc(C(=O)OC)c1	8%	1%	.	.	-1%	-11%	27%	0%
44	CCc1c(C)[nH]c2ccccc2c1=O	6%	-40%	-7%	7.7%	-14%	-10%	0%	?
45	CSc1nc2c(c(=O)[nH]1)C(c1ccc(C(F)(F)F)cc1)CC(=O)N2 (stereo not given)	6%	4%	.	.	-20%	7%[46.1 µM]	4%	5%
46	S=C(Nc1ccc(Br)cc1Cl)N1CCCC1	16%	5%	.	.	51%[activator]	-3%	21%	-3%
47	CCOC(=O)c1ccc(N2C(=O)c3[nH]nc(-c4ccc(C)cc4)c3C2c2ccc(O)cc2)cc1 (stereo not given)	.	.	?	-5.1%	32µM*	10µM*	?	.
48	O=C(CCCNC(=O)/C(=C/c1ccc(Br)cc1)NC(=O)c1ccccc1)OCc1ccccc1	0%	3%	1%	1.4%	12%	-10%[46.1 µM]	4%	0%
49	COc1cccc(-n2nnnc2SCC(=O)Nc2ccc(C(C)=O)cc2)c1	-21%	0%	-9%	3.1%	-22%	2%	1%	-3%
50	CC(C)c1ccc(/C=C/C2=NNC(=O)CC2)cc1	4%	.	.	.	17%	?	?	-8%
51	COc1ccc([N+](=O)[O-])cc1NC(=O)Cc1noc2ccc(C)cc12	7%	.	.	.	-16%	2%[46.1 µM]	4%	-4%
52	Cc1ccc(NC(=O)COC(=O)Cc2ccsc2)cc1S(=O)(=O)N1CCOCC1	.	-10%	11%	-4.4%	4%	-27%	24%	2%
53	COCC(C)n1c(SCC(=O)Nc2ccc3c(c2)OCCO3)nc2ccccc2c1=O (stereo not given)	-11%	.	.	.	-14%	-5%	6%	3%
54	Cc1cccc(NC(=O)C2CC(=O)OC23CCCCC3)c1 (stereo not given)	-6%	3%	-27%	4.6%	-25%	-21%[46.1 µM]	6%	9%
55	O=C(Nc1ccc(OC(F)(F)C(F)F)c(NC(=O)c2ccc(F)cc2)c1)c1ccc(F)cc1	10%	.	.	.	0%	?	-8%	.
56	COc1ccc(CN2C(=O)C(NC(=O)c3ccccc3OC)(C(F)(F)F)N=C2c2ccccc2)cc1 (stereo not given)	.	.	21%	-4.5%	-6%	?	-12%[46.1 µM]	.
57	O=[n+]1c2c(n([O-])c3cc(F)c(N4CCCC4)cc31)CCCC2	-6%	-8%	-8%	-3.0%	32%[activator]	25%	?	-14%
58	O=C(N/N=C/c1cccc(Br)c1)c1ccc(N2CCCC2=O)cc1	10%	-7%	.	.	-24%	?	?	1%
